# Source: PubChem BioAssay
# TMEM16A inh: mouse TMEM16A channel inhibition, primary screen | HEK293 TMEM16A/YFP iodide influx fluorescence, ionomycin | normalized B-score (activity score, 25-100; higher = stronger inhibition) at 10 µM | Q8BHY3 | hit rate 1.2% among 310,000;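 active means ratio plate-corrected score three or more library SD toward inhibition, starting fluorescence score within five deviations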;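 further: score derived from kinetic fluorescence span divided by baseline fluorescence per well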
# Target sequence (Q8BHY3 whole entry, looked up): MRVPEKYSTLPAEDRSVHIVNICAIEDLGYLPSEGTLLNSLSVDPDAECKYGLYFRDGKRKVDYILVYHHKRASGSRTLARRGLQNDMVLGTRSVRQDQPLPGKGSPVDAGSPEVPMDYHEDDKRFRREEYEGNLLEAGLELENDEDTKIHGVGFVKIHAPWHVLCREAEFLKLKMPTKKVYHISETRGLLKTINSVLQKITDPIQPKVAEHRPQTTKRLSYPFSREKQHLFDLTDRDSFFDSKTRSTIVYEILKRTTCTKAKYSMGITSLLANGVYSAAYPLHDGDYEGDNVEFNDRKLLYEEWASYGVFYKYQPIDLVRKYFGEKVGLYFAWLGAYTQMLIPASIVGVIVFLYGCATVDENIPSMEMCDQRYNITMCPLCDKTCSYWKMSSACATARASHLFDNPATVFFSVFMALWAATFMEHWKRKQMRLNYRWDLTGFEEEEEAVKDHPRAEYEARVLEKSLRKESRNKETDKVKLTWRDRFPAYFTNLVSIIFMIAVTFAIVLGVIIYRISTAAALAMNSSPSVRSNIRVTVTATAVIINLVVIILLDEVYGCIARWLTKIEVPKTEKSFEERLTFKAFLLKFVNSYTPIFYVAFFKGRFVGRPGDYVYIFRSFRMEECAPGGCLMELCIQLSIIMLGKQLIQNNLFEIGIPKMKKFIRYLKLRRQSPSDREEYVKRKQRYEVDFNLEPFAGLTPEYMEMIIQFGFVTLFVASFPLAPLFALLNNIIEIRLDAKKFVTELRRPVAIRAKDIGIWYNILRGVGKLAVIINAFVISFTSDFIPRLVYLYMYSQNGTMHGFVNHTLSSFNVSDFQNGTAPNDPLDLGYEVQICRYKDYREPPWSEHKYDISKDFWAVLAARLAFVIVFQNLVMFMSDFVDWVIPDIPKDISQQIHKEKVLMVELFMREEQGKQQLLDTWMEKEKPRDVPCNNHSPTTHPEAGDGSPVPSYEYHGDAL
# TMEM16A act: activates or potentiates the mouse TMEM16A chloride channel. HEK293 TMEM16A/YFP-H148Q/I152L, iodide quench fluorescence; active compounds read low. B-score at 10 µM. hit rate 0.3% among 340,000. AID 623877;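 active means fluorescence-ratio B-score plate-corrected deviation score at least 3 library SD below zero, with starting fluorescence score within 5 deviations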;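 further: channel opened by trigger with iodide after compound preincubation; score built on the fluorescence ratio of max minus min over baseline; more negative score means more quench and so TMEM16A activation or potentiation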
# MrgX1 ag: activates human MrgX1 receptor signaling. MrgX1-HEK293 cells, Fluo-4 calcium fluorescence, agonist mode; active compounds read high. Q96LB2. B-score at 10 µM. hit rate 0.44% among 310,000;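 active means calcium response B-score plate-corrected fluorescence ratio at least 3 library SD, with starting fluorescence B-score inside 5 SD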
#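 Material: HEK293 cells stably expressing human MrgX1 receptor | Quantity: 15,000 cells per well | Times: Cells plated overnight, dye loaded 0.5 h 37 °C, 0.5 h room temperature | Measured by: Kinetic Fluo-4 NW fluorescence of intracellular calcium | Control set: Positive and negative controls per plate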
# HDAC3 inhib: inhibitors of human histone deacetylase 3 | AID 2718 | inhibition, % at 8.3 µM | O15379 | recombinant HDAC3, fluorogenic peptide/trypsin coupled, fluorescence | hit rate 0.15% among 320,000; in the data active means inhibition above about 26%, passing the limit was not always enough
# MrgX1 allo act: human MrgX1 positive allosteric modulation, primary screen; MrgX1-HEK293, Fluo-4 calcium flux, FDSS; active compounds read high; B-score at 10 µM; Q96LB2; hit rate 0.63% among 310,000; AID 588675;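 active means plate-corrected calcium response at least 3 library SD above typical, normal starting fluorescence, not activating the receptor alone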;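 further: compound read alongside a low EC10 to EC30 dose of BAM8-22 agonist; peak minus trough fluorescence over baseline measured at the second addition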
# MrgX1 antag: blocks BAM8-22 activation of human MrgX1 receptor. Q96LB2. MRGX1-HEK293 calcium flux, Fluo-4, BAM8-22 antagonism; active compounds read low. B-score at 10 µM. hit rate 1.3% among 310,000;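 active means calcium-response B-score plate-corrected more than 3 library SD below zero, starting fluorescence within 5 deviations, no agonist response on first addition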;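 further: peak minus trough fluorescence over baseline after final BAM8-22 challenge near maximal dose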
# Numbers without * were called inactive; i = inactive; x = not tested or not shown; & = joins results of further samples. The list is partial, so the mix of outcomes need not match the whole.
1	N=C(N)c1ccc(/C=C/c2ccc(C(=N)N)cc2O)cc1
2	Nc1ccn([C@@H]2CS[C@H](CO)O2)c(=O)n1
3	COC(=O)C1C(O)CCC2CN3CCc4c([nH]c5ccccc45)C3CC21 (configuration not stated)
4	CC1=C(CC(=O)O)c2cc(F)ccc2/C1=C\c1ccc(S(C)=O)cc1 (configuration not stated)
5	COc1ccc2cc([C@H](C)C(=O)O)ccc2c1
6	CN1[C@@H]2CC(OC(=O)[C@H](CO)c3ccccc3)C[C@H]1[C@@H]1O[C@@H]12 (some centres not stated)
7	Nc1nc2c(ncn2COCCO)c(=O)[nH]1
8	CCCC(=O)c1ccc(O)cc1O
9	CN1CCN(CCC=C2c3ccccc3Sc3ccc(S(=O)(=O)N(C)C)cc32)CC1
10	CCN1CCN(C(=O)c2ccc(NS(=O)(=O)c3ccccc3)cc2)CC1

assay / compound,1,2,3,4,5,6,7,8,9,10
TMEM16A inh,i,i,i,i,i,i,i,x,i,i
TMEM16A act,i,x,i,i,i,i,i,i,i,i
MrgX1 ag,i,i,i,i,i,i,i,x,i,i
HDAC3 inhib,50*,1,-5,-2,8,1&0&2,4,x,-12,3
MrgX1 allo act,i,i,i,i,i,i,i,x,i,i
MrgX1 antag,i,i,i,i,i,i,i,x,i,i

11	C[N+]1(C)CC[C@H](OC(=O)[C@@](O)(c2ccccc2)C2CCCC2)C1
12	Cc1nnc(SCC2=C(C(=O)O)N3C(=O)C(NC(=O)Cn4cnnn4)C3SC2)s1 (configuration not stated)
13	Cc1ccc2c(c1)C1CN(C)CCC1N2C(=S)Nc1ccc(Cl)cc1Cl (configuration not stated)
14	CC(=O)Nc1c(I)c(NC(C)=O)c(I)c(C(=O)O)c1I
15	CCN(CC)CCNC(=O)c1ccc(N)cc1
16	COC(=O)[C@H]1[C@H]2C[C@H]3c4[nH]c5ccccc5c4CCN3C[C@H]2CC[C@@H]1O
17	Cc1nc2ccccc2c(-c2ccccc2)c1CC(=O)O

assay / compound,11,12,13,14,15,16,17
TMEM16A inh,i,i,i,i,i,i,i
TMEM16A act,i,i,i,i,i,i,i
MrgX1 ag,i,i,i,i,i,i,i
HDAC3 inhib,-8,-2,10,-4&4&-4,-1,3,-2
MrgX1 allo act,i,i,i,i,i,i,i
MrgX1 antag,i,i,i,i,i,i,i

# Reformatted: results already given
# The line under a structure holds: TMEM16A inh | TMEM16A act | MrgX1 ag | HDAC3 inhib | MrgX1 allo act | MrgX1 antag
6	CN1[C@@H]2CC(OC(=O)[C@H](CO)c3ccccc3)C[C@H]1[C@@H]1O[C@@H]12 (some centres not stated)
    i | i | i | 1&0&2 | i | i
7	Nc1nc2c(ncn2COCCO)c(=O)[nH]1
    i | i | i | 4 | i | i
8	CCCC(=O)c1ccc(O)cc1O
    x | i | x | x | x | x
9	CN1CCN(CCC=C2c3ccccc3Sc3ccc(S(=O)(=O)N(C)C)cc32)CC1
    i | i | i | -12 | i | i
10	CCN1CCN(C(=O)c2ccc(NS(=O)(=O)c3ccccc3)cc2)CC1
    i | i | i | 3 | i | i
11	C[N+]1(C)CC[C@H](OC(=O)[C@@](O)(c2ccccc2)C2CCCC2)C1
    i | i | i | -8 | i | i
12	Cc1nnc(SCC2=C(C(=O)O)N3C(=O)C(NC(=O)Cn4cnnn4)C3SC2)s1 (configuration not stated)
    i | i | i | -2 | i | i
13	Cc1ccc2c(c1)C1CN(C)CCC1N2C(=S)Nc1ccc(Cl)cc1Cl (configuration not stated)
    i | i | i | 10 | i | i
14	CC(=O)Nc1c(I)c(NC(C)=O)c(I)c(C(=O)O)c1I
    i | i | i | -4&4&-4 | i | i
